Compound activity (PubChem)
Vaccinia stage – Vaccinia orthopox stage-specific inhibition. activity change (mCherry), % (test concentration not listed). Vaccinia-infected cells, mCherry/Venus stage reporter fluorescence; hits give low values; some inactives read as strong as hits. 89,000 compounds, 0.01% hits;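 active = mCherry past -33% and 40 or more points under the early reporter, replicates agreeing; inconclusive = past -33% without that gap or agreement; tested in A549 cells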;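 also: scaled between vehicle wells and reference inhibitor wells; 23 nL library stock went into each well; one replicate is shown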
Vaccinia stage Venus – further read-out of Vaccinia stage, marked with its call; activity change (Venus), %; measured here: Venus reporter, other viral stage;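 negative = less Venus signal; first of two replicates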
Starred values were filed as active, the others as inactive; ? = inconclusive; / = not tested or not shown.

SMILES	Vaccinia stage	Vaccinia stage Venus
C[C@H](CO)N1C[C@H](C)[C@@H](CN(C)Cc2ccc(Oc3ccccc3)cc2)Oc2ccc(NC(=O)NC3CCCCC3)cc2CC1=O	-33.4	-13.9
Cc1noc(C)c1NC(=O)N(C)C[C@H]1Oc2ccc(NC(=O)CCC(F)(F)F)cc2C(=O)N([C@H](C)CO)C[C@@H]1C	29.0	20.7
C[C@@H]1CN([C@@H](C)CO)C(=O)c2cccc(NS(=O)(=O)c3ccc(Cl)cc3)c2O[C@H]1CN(C)Cc1ccc(C(F)(F)F)cc1	-26.9	-22.8
C[C@@H]1CN([C@H](C)CO)C(=O)c2cc(NC(=O)c3ccncc3)ccc2O[C@H]1CN(C)C(=O)Nc1ccccc1	9.3	9.7
COc1ccc(-c2ccc(C3[C@@H]4CN(C(=O)Nc5cccc(F)c5)C[C@H]3N4)cc2)cc1 (stereo partly drawn)	?	/
CNC[C@H]1OCCCC[C@@H](C)Oc2ccc(NC(=O)Nc3ccc(F)cc3)cc2C(=O)N([C@H](C)CO)C[C@H]1C	4.6	6.3
C/C=C/c1ccc([C@H]2[C@@H](CO)N(C(=O)C3CCCC3)C23CN(S(C)(=O)=O)C3)cc1	-0.6	11.1
COc1ccc(CN(C)C[C@H]2OCCCC[C@@H](C)Oc3ccc(NC(=O)NC4CCCCC4)cc3C(=O)N([C@H](C)CO)C[C@H]2C)cc1	?	/
COc1cccc(S(=O)(=O)N2CCCCN3[C@H](CO)[C@@H](c4ccc(C#CC5CC5)cc4)[C@@H]3C2)c1	-21.9	-27.8
Cc1ccc(S(=O)(=O)N(C)C[C@@H]2Oc3c(NS(=O)(=O)c4c(C)noc4C)cccc3C(=O)N([C@H](C)CO)C[C@@H]2C)cc1	-13.5	-5.0
C[C@@H]1CN([C@@H](C)CO)C(=O)c2cc(NC(=O)Nc3ccc(C(F)(F)F)cc3)ccc2O[C@@H]1CN(C)S(=O)(=O)c1cn(C)cn1	-2.3	-7.5
C[C@H](CO)N1C[C@H](C)[C@H](CN(C)C(=O)c2ccccn2)Oc2ncc(C3=CCCCC3)cc2C1=O	13.7	-9.0
COCC(=O)N1[C@H](CO)[C@H](c2ccccc2)[C@@H]1CNC(=O)c1ccccn1	7.9	10.1
CO[C@@H](CN(C)S(=O)(=O)c1ccccc1)[C@H](C)CN(Cc1ccccc1Cl)[C@H](C)CO	-9.2	-5.7
C[C@H]1CN([C@@H](C)CO)C(=O)Cc2cc(NC(=O)Nc3ccc(C(F)(F)F)cc3)ccc2O[C@H]1CN(C)CC1CC1	?	/
C[C@@H]1CN([C@@H](C)CO)C(=O)Cc2cc(NC(=O)Nc3ccc(F)cc3)ccc2O[C@H]1CN(C)C(=O)NC1CCCCC1	-9.6	-10.5
Cc1noc(C)c1S(=O)(=O)N(C)C[C@H]1OCCCC[C@H](C)Oc2ccc(NC(=O)NC(C)C)cc2C(=O)N([C@H](C)CO)C[C@@H]1C	4.5	0.7
COc1ccccc1C(=O)Nc1ccc2c(c1)C(=O)N(C)[C@H]1CC[C@@H](CC(=O)NCc3ccc(Cl)c(Cl)c3)O[C@H]1CO2	?	/
CN1CCN(C(=O)C[C@@H]2CC[C@H]3[C@@H](COC[C@H](O)CN3C(=O)Nc3ccc(F)cc3)O2)CC1	21.7	4.6
COc1ccccc1NC(=O)N1C[C@H]2[C@@H](c3ccccc31)[C@H](CO)N2C(=O)C1CCCC1	-6.7	-6.6
Cc1ccc(-c2ccc3c(c2)O[C@H](CN(C)C(=O)Nc2ccc(C(F)(F)F)cc2)[C@@H](C)CN([C@H](C)CO)S3(=O)=O)cc1	?	/
Cc1noc(C)c1S(=O)(=O)N(C)C[C@@H]1OCCCC[C@@H](C)Oc2ccc(NS(C)(=O)=O)cc2C(=O)N([C@H](C)CO)C[C@H]1C	3.2	-5.4
C[C@@H]1CN([C@H](C)CO)C(=O)c2ccccc2-c2ccccc2CO[C@@H]1CN(C)Cc1cccc(F)c1	?	/
C[C@@H]1CCCCO[C@H](CN(C)C(=O)CCC(F)(F)F)[C@H](C)CN([C@H](C)CO)C(=O)c2cc(NS(C)(=O)=O)ccc2O1	-5.9	2.9
C[C@@H]1CN([C@@H](C)CO)C(=O)c2cc(-c3cccc(F)c3)cnc2O[C@@H]1CN(C)C(=O)c1cnccn1	24.8	2.0
C[C@@H]1CCCCO[C@H](CN(C)C(=O)c2ccccc2)[C@H](C)CN([C@@H](C)CO)C(=O)c2cc(NC(=O)NC3CCCCC3)ccc2O1	-11.6	-2.8
C[C@@H]1CN([C@H](C)CO)C(=O)c2cc(C#CC3(O)CCCC3)cnc2O[C@H]1CN(C)C(=O)Cc1cccnc1	12.2	6.3
C[C@@H]1CN([C@@H](C)CO)S(=O)(=O)c2ccc(C#Cc3ccc(F)cc3)cc2O[C@@H]1CN(C)C(=O)CN(C)C	-18.9	-10.2
C[C@H](CO)N1C[C@H](C)[C@@H](CN(C)Cc2ccncc2)Oc2c(NS(=O)(=O)c3ccc(Cl)cc3)cccc2C1=O	-5.3	4.1
CN(C)C(=O)C[C@H]1CC[C@H]2[C@H](COc3ccc(NC(=O)c4ccc(F)cc4)cc3C(=O)N2C)O1	5.8	12.2

5 entries from above, reformatted:
| Compound | Vaccinia stage | Vaccinia stage Venus |
| --- | --- | --- |
| C[C@@H]1CN([C@@H](C)CO)C(=O)c2cc(-c3cccc(F)c3)cnc2O[C@@H]1CN(C)C(=O)c1cnccn1 | 24.8 | 2.0 |
| C[C@@H]1CCCCO[C@H](CN(C)C(=O)c2ccccc2)[C@H](C)CN([C@@H](C)CO)C(=O)c2cc(NC(=O)NC3CCCCC3)ccc2O1 | -11.6 | -2.8 |
| C[C@@H]1CN([C@H](C)CO)C(=O)c2cc(C#CC3(O)CCCC3)cnc2O[C@H]1CN(C)C(=O)Cc1cccnc1 | 12.2 | 6.3 |
| C[C@@H]1CN([C@@H](C)CO)S(=O)(=O)c2ccc(C#Cc3ccc(F)cc3)cc2O[C@@H]1CN(C)C(=O)CN(C)C | -18.9 | -10.2 |
| C[C@H](CO)N1C[C@H](C)[C@@H](CN(C)Cc2ccncc2)Oc2c(NS(=O)(=O)c3ccc(Cl)cc3)cccc2C1=O | -5.3 | 4.1 |

Additional compounds follow:
SMILES	Vaccinia stage	Vaccinia stage Venus
C[C@H]1CN([C@@H](C)CO)C(=O)c2ccccc2-c2ccccc2CO[C@@H]1CN(C)Cc1ccc(C(F)(F)F)cc1	?	/
COc1ccc2c3c(n(C)c2c1)[C@H](CO)N(C)CC31CCN(C(=O)c2cccnc2)CC1	7.0	1.5
CCCC#Cc1cnc2c(c1)C(=O)N([C@@H](C)CO)C[C@H](C)[C@@H](CN(C)Cc1ccc(F)cc1)O2	-15.1	-11.6
COc1ccc2c3c(n(C)c2c1)[C@@H](CO)N(C(=O)Nc1ccc(F)cc1)CC31CCN(Cc2cccc(F)c2)CC1	?	/
O=C(c1cccnc1)N1CC2(C1)[C@H](c1ccccc1)[C@H](CO)N2C(=O)C1CCC1	-0.8	5.3
CO[C@@H]1CN(C)C(=O)c2ccc(NC(C)=O)cc2OC[C@@H](C)N(C(=O)C2CCC2)C[C@H]1C	6.7	2.2
Cc1ccc(-c2ccccc2[C@H]2[C@@H](C#N)N(S(C)(=O)=O)[C@@H]2CO)cc1	6.9	4.9
CCN(C[C@H]1[C@@H](c2ccccc2)[C@H](CO)N1CC1CC1)C(=O)c1ccccn1	15.3	8.4
C[C@@H]1CN([C@@H](C)CO)C(=O)Cc2cc(NC(=O)Cc3ccccc3)ccc2O[C@@H]1CN(C)C(=O)Nc1ccc(C(F)(F)F)cc1	-7.5	0.5
O=C(Cc1cccnc1)N1CC(=O)N2[C@H](C1)[C@H](c1ccc(C3=CCCCC3)cc1)[C@@H]2CO	-10.9	-6.3
O=C(C[C@H]1CC[C@H]2[C@@H](COC[C@@H](O)CN2CC2CCCC2)O1)NCc1ccc(Cl)cc1	?	/
COc1ccc(S(=O)(=O)Nc2ccc3c(c2)C(=O)N([C@H](C)CO)C[C@H](C)[C@@H](CN(C)Cc2ccc(C(=O)O)cc2)O3)cc1	10.7	11.3
C[C@H](CO)N1C[C@H](C)[C@H](CN(C)C(=O)NC2CCCCC2)OCc2cn(nn2)CCCC1=O	-4.0	-3.0
COCC(=O)Nc1ccc2c(c1)C(=O)N(C)C[C@H](OC)[C@@H](C)CN(Cc1cccc(F)c1)[C@@H](C)CO2	14.7	6.7
COc1ccc(-c2ccc3c(c2)[C@H]2[C@H](CCN2S(=O)(=O)c2ccc(OC)cc2)[C@H](CO)N3C)cc1	?	/
C[C@H](CO)N1C[C@H](C)[C@@H](CN(C)C(=O)Cc2ccncc2)Oc2cc(C#CC3CCCC3)ccc2S1(=O)=O	-27.3	-19.7
C[C@@H](O)C#Cc1ccc([C@H]2[C@@H](CO)N3CCCCN(C(=O)c4ccncc4)C[C@@H]23)cc1	22.8	11.9
COc1ccc([Si](C)(C)[C@@H]2[C@@H](CCO)O[C@]3(C(=O)N(Cc4ccc(NC(C)=O)cc4)c4ccccc43)[C@H]2C)cc1	?	/
C[C@@H]1CN([C@H](C)CO)C(=O)Cc2cc(NS(C)(=O)=O)ccc2O[C@H]1CN(C)C(=O)Nc1cccc2ccccc12	36.3	25.4
O=C(C[C@H]1CC[C@H](NC(=O)Nc2ccc(C(F)(F)F)cc2)[C@H](CO)O1)NCc1cccc(F)c1	-18.9	-15.8

A draw from above in order of molecular weight, descending.
SMILES	Vaccinia stage	Vaccinia stage Venus
C[C@@H]1CN([C@H](C)CO)C(=O)Cc2cc(NS(C)(=O)=O)ccc2O[C@H]1CN(C)C(=O)Nc1cccc2ccccc12	36.3	25.4
COCC(=O)Nc1ccc2c(c1)C(=O)N(C)C[C@H](OC)[C@@H](C)CN(Cc1cccc(F)c1)[C@@H](C)CO2	14.7	6.7
C[C@@H](O)C#Cc1ccc([C@H]2[C@@H](CO)N3CCCCN(C(=O)c4ccncc4)C[C@@H]23)cc1	22.8	11.9

Later entries.
SMILES	Vaccinia stage	Vaccinia stage Venus
CC(C)CC#Cc1cnc2c(c1)C(=O)N([C@@H](C)CO)C[C@@H](C)[C@@H](CN(C)CC1CCOCC1)O2	-19.9	-5.1
C[C@H]1CCCCO[C@@H](CN(C)CC2CCCCC2)[C@@H](C)CN([C@@H](C)CO)C(=O)c2cc(NC(=O)c3ccccc3)ccc2O1	?	/
C[C@H](O)C#Cc1cnc2c(c1)C(=O)N([C@H](C)CO)C[C@@H](C)[C@H](CN(C)C(=O)Nc1ccc(C(F)(F)F)cc1)O2	6.8	4.4
CN(C)CC(=O)Nc1ccc2c(c1)[C@H]1C[C@@H](CC(=O)NCc3ccccn3)O[C@@H](CO)[C@H]1O2	0.8	0.4
CCCNC(=O)Nc1ccc2c(c1)OC[C@@H](C)N(C(=O)c1ccccc1F)C[C@@H](C)[C@@H](OC)CN(C)C2=O	-3.0	0.6
C[C@@H]1CN([C@@H](C)CO)C(=O)c2cc(C#C[C@@H](C)O)cnc2O[C@H]1CN(C)C(=O)CN1CCOCC1	16.4	10.3
N#C[C@@H]1[C@H](c2ccccc2)[C@@H](CO)N1S(=O)(=O)c1cccc(F)c1	12.4	4.0
CNC[C@@H]1Oc2cc(C#CCC3CCCC3)ccc2S(=O)(=O)N([C@@H](C)CO)C[C@H]1C	?	/
C[C@H]1CCCCO[C@H](CN(C)S(=O)(=O)c2ccccc2)[C@@H](C)CN([C@@H](C)CO)C(=O)c2cc(NS(C)(=O)=O)ccc2O1	28.4	12.2
COc1ccccc1C(=O)Nc1ccc2c(c1)C(=O)N(C)C[C@H](OC)[C@@H](C)CN(CC1CC1)[C@@H](C)CO2	-5.7	-4.2
O=S(=O)(c1ccccc1)N1CC2(C1)[C@@H](c1ccccc1)[C@H](CO)N2CC1CC1	15.0	16.2
C[C@H]1CN([C@@H](C)CO)C(=O)c2cccc(NC(=O)c3nc4ccccc4s3)c2O[C@@H]1CN(C)C(=O)Nc1ccc(C(F)(F)F)cc1	-20.4	-12.7
C[C@@H]1CN([C@H](C)CO)C(=O)Cc2cc(NS(=O)(=O)c3ccc(F)cc3)ccc2O[C@@H]1CN(C)Cc1ccc2c(c1)OCO2	-7.0	3.6
COc1ccc(C#Cc2ccc([C@@H]3[C@H]4CN(C(=O)Cc5ccccc5)CCCCN4[C@H]3CO)cc2)cc1	?	/
Cc1noc(C)c1S(=O)(=O)N(C)C[C@@H]1Oc2ccc(N(C)C)cc2CC(=O)N([C@H](C)CO)C[C@H]1C	27.3	3.4
COc1ccc([C@H]2C=C(C(=O)N3CCN(Cc4ccc5c(c4)OCO5)CC3)O[C@@H](OCc3ccc(CO)cc3)C2)cc1	-8.1	-11.2
CNC[C@H]1OCCCC[C@H](C)Oc2ccc(NC(=O)c3ccncc3)cc2C(=O)N([C@@H](C)CO)C[C@@H]1C	5.9	3.1
O=C(O)C[C@H]1C[C@@H]2c3cc(NC(=O)CC4CC4)ccc3O[C@@H]2[C@H](CO)O1	2.9	6.1
CC(=O)N1[C@@H]2c3ccc(C4=CCCCC4)c(=O)n3C[C@@H]2[C@@H](CO)[C@@H]1C(=O)Nc1ccccc1	6.1	-0.7
O=C(N[C@H]1C=C[C@H](CC(=O)N2CCN(c3ccccc3)CC2)O[C@H]1CO)c1ccncc1	-16.2	-12.6
CN(C)CC(=O)Nc1ccc2c(c1)[C@@H]1C[C@H](CC(=O)NC3CCCC3)O[C@H](CO)[C@@H]1O2	10.9	9.3
CO[C@@H]1CN(C)C(=O)c2ccc(NC(=O)c3ccccc3)cc2OC[C@@H](C)N(C(=O)CN(C)C)C[C@@H]1C	11.1	10.0
Cc1noc(C)c1S(=O)(=O)Nc1cccc2c1O[C@@H](CN(C)C(=O)Nc1ccccc1)[C@@H](C)CN([C@@H](C)CO)C2=O	13.1	19.1
C[C@@H]1CCCCO[C@@H](CN(C)S(=O)(=O)c2ccc(Cl)cc2)[C@@H](C)CN([C@H](C)CO)C(=O)c2cc(NC(=O)CCC(F)(F)F)ccc2O1	11.3	-2.1
O=C(Nc1cccc(F)c1)N1CC(=O)N2[C@H](CO)[C@@H](c3ccc(C#CCC4CCCC4)cc3)[C@H]2C1	?	/

These rows are one share of the data, so the mix of outcomes need not match the whole.
